# Screens (PubChem BioAssay)
# FGF22 binding: shifts melting point of recombinant human FGF22. Q9HCT0. recombinant FGF22 thermal shift, SYPRO orange fluorescence; percent of sucrose octasulfate shift, DMSO zero. calls only at 9.99 µM. 340,000 tested, 1.5% active. AID 651658;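 active = melting point raised past a set limit in the mean and every replicate; inconclusive = no clear call; three in four hits are not shown here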
# Target sequence (Q9HCT0 whole entry, looked up): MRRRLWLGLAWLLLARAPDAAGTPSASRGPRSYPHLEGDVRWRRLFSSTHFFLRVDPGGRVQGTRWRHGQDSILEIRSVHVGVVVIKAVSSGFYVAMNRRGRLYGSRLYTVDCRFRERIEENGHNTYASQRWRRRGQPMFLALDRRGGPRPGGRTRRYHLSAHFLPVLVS
# rRNA inh HTS: inhibits bacterial ribosomal RNA function over humanized ribosomes | E. coli WT GFP vs humanized-ribosome RFP mutants, fluorescence, 24 h; active compounds read low; DMSO median 0, no signal -100 | GFP signal change (wild-type ribosome), % (test concentration not listed) | 350,000 tested, 1.6% active | AID 720706;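 active = significant combined selectivity score with lowered wild-type GFP, culture density cut under 30%, mutant RFP and density less affected; inactive = any of these conditions unmet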; note: one replicate is shown; some compounds called inactive have numbers as strong as hits
# AF4-AF9 inh: inhibitors of human MLL-AF4/AF9 interaction; AlphaScreen, biotin-AF4 peptide binding to FLAG-AF9; inhibition, % at 10 µM; 350,000 tested, 0.47% active;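 active = every replicate reaching a set inhibition limit, whatever the replicate mean, cut at about 25% in these data; inconclusive = mean inhibition reaches that limit but some replicates miss it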;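 note: 0% = plate neutral control median and 100% = total signal loss; the record names both 10 and 1 µM as test concentration; the first replicate is given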
# Target sequence (P42568 whole entry, looked up): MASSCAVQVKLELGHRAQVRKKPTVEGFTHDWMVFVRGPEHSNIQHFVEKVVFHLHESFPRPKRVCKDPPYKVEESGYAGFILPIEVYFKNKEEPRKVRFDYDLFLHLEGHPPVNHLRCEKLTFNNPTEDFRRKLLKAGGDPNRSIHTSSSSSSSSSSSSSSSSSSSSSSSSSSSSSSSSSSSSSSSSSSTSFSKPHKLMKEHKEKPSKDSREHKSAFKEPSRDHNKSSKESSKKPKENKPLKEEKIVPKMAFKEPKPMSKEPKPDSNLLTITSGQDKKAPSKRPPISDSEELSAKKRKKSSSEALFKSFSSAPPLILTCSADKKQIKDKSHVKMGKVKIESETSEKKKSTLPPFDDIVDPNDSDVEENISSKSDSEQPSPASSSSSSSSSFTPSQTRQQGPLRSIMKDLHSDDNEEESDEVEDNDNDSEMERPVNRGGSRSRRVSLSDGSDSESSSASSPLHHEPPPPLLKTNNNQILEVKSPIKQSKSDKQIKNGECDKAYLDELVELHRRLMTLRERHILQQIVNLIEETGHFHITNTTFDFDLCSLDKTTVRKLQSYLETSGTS
# rRNA inh HTS OD600: also measured in rRNA inh HTS; calls as there; OD600 change, %; measured here: OD600 growth;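 optical density of the mix in the first replicate; 0 = DMSO median and -100 = no signal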
# rRNA inh HTS RFP: also measured in rRNA inh HTS; calls as there; RFP signal change, %; measured here: RFP humanized mutant strains;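 first replicate; 0 = DMSO median and -100 = no signal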
# The depositor's hits bear a star; i = inactive; ? = inconclusive; + = active, no number. Not all compounds are listed; the hit share may differ from the screen's.
SMILES,FGF22 binding,rRNA inh HTS,rRNA inh HTS OD600,rRNA inh HTS RFP,AF4-AF9 inh
O=C(Nc1ccccc1F)N[C@H]1C=C[C@@H](CC(=O)N2CCCCC2)O[C@H]1CO,i,0,4,1.4,0.3
C[C@H]1CCCCO[C@H](CN(C)C(=O)CCCN(C)C)[C@@H](C)CN([C@@H](C)CO)C(=O)c2cc(NC(=O)C3CCCCC3)ccc2O1,i,3,4,-1.3,-0.3
CCCCCCN1C[C@H](O)[C@@H](n2cc(C3CC3)nn2)C[C@@H]1c1ccccc1,i,-16*,-7.9*,-0.7*,0.7
COc1cccc(C(=O)N2C[C@H]3[C@@H](c4ccccc42)[C@@H](CO)N3C(=O)c2ccc(F)cc2)c1,i,4,4,-0.3,-0.3
CN(Cc1ccco1)C(=O)CC[C@H]1O[C@@H](n2ccc(=O)[nH]c2=O)[C@H](O)[C@@H]1O,i,17,15,2.0,-0.6
COCC(=O)Nc1ccc2c(c1)OC[C@H](C)N(C(=O)c1ccncc1)C[C@@H](C)[C@H](OC)CN(C)C2=O,i,-1,-10,-1.1,-2.8
Cc1cccc(NC(=O)COc2ccc3c(c2)CCC3)n1,i,-7,-9,0.6,2.1
O=C(Cc1cccnc1)N[C@H]1CC[C@@H](CCn2cc(Cc3ccccc3)nn2)O[C@@H]1CO,i,3,12,-0.6,-0.6
COc1ccc2c(c1)C(=O)CC(c1ccccc1)O2 (stereo not given),i,2,-11,-0.9,-7.2
CC(C)Oc1ccc(F)cc1-c1cc(C(=O)NCc2cc(C(F)(F)F)cc(C(F)(F)F)c2)[nH]n1,i,9,7,-4.3,-4.8
COCC(=O)N(C)C[C@H]1Oc2cc(-c3ccc(C#N)cc3)ccc2S(=O)(=O)N([C@@H](C)CO)C[C@H]1C,i,3,-3,0.3,-0.7
C[C@H](CO)N1C[C@H](C)[C@H](CN(C)Cc2ccncc2)Oc2ccc(NC(=O)C3CCCCC3)cc2C1=O,i,2,2,-0.9,-1.7
COc1ccc(C(=O)c2cc(OC)c(OC)c(OC)c2)cc1OC,i,3,-2,8.2,2.7
CCN1[C@@H]2Cn3c(ccc(/C=C/c4ccccc4)c3=O)[C@H]1[C@@H](C(=O)NCc1ccccn1)[C@@H]2CO,i,-1,-3,-1.8,-2.5
CCNC(=O)Nc1ccc2c(c1)C(=O)N(C)[C@H]1CC[C@@H](CC(=O)N[C@H](C)c3ccccc3)O[C@H]1CO2,i,3,-3,1.3,-5.8
Cc1cccc(C)c1OCC(O)CN1CCN(C(=O)c2ccccc2)CC1 (stereo not given),i,4,-2,1.4,-2.7
C[C@H]1CN([C@@H](C)CO)C(=O)c2cc(NC(=O)Cc3cn(C)c4ccccc34)ccc2O[C@@H]1CN(C)Cc1ccncc1,i,1,3,0.6,3.0
C[C@H]1CN([C@@H](C)CO)C(=O)c2cccc(NC(=O)C3CCOCC3)c2O[C@H]1CN(C)S(=O)(=O)c1ccccc1,i,2,6,2.5,-1.7
Cc1noc(C)c1NC(=O)Nc1ccc2c(c1)C(=O)N([C@H](C)CO)C[C@H](C)[C@@H](CN(C)S(=O)(=O)c1cn(C)cn1)OCCCC[C@H](C)O2,i,4,7,-1.3,-0.5
CC(C)NC(=O)N(C)C[C@H]1Oc2cc(C#CC3CC3)ccc2S(=O)(=O)N([C@H](C)CO)C[C@@H]1C,i,2,7,-2.1,-2.1
O=C(NCC[C@H]1CC[C@@H](NC(=O)c2cnccn2)[C@H](CO)O1)Nc1ccc(Cl)cc1,i,-40,-66,9.3,15
COc1ccc(CN(C)C[C@H]2Oc3ccc(NS(=O)(=O)c4ccc(C)cc4)cc3CC(=O)N([C@H](C)CO)C[C@@H]2C)cc1,i,0,-8,2.1,1.3
COCCN1C(=O)CCC1(C)C(=O)NC1CCCCC1 (stereo not given),i,8,5,-2.0,-1.8
Cc1ccc(S(=O)(=O)Nc2ccc3c(c2)C(=O)N([C@@H](C)CO)C[C@H](C)[C@H](CN(C)S(=O)(=O)c2ccccc2)O3)cc1,i,-1,-4,3.4,2.0
C/C=C/c1ccc([C@H]2[C@@H](CO)N(Cc3cccnc3)C23CN(C(=O)CC)C3)cc1,i,-2,-3,0.6,1.1
CCCCN1CC(N2CCCCC2)CS1(=O)=O (stereo not given),i,20,13,4.9,-0.2
COc1ccc(NC(=O)c2cc(-c3sc(NC(=O)c4ccccc4)nc3C)n(Cc3ccccc3)n2)cc1,i,12,14,-1.3,1.3
c1ccc(C(=C2CCCO2)c2ccccc2)cc1,i,1,-5,-2.1,-0.7
COc1ccc2c3c(n(C)c2c1)[C@@H](CO)N(Cc1ccc(Cl)cc1)CC31CN(CC2CC2)C1,i,2,-1,2.5,8.1
COc1ccc2c(c1)CCO[C@]21O[C@H](CCO)C[C@H](O)[C@H]1O,i,-1,-3,-5.8,3.4
CC(C)NC(=O)Nc1ccc2c(c1)CC(=O)N([C@@H](C)CO)C[C@H](C)[C@@H](CN(C)Cc1ccc(Cl)c(Cl)c1)O2,i,-10,-42,6.8,-7.6
N#CCCn1cc(C(=O)CN2C(=O)C(=O)N(C3CCCC3)C2=O)c2ccccc21,i,7,9,5.0,0.1
C[C@@H]1CN([C@@H](C)CO)C(=O)c2cccc(NS(C)(=O)=O)c2O[C@H]1CN(C)S(=O)(=O)c1ccccc1,i,3,-9,3.3,-2.2
O=C(CCn1c(=S)[nH]c2cc3c(cc2c1=O)OCO3)NCCc1ccccc1Cl,i,-2,4,-0.9,-11
C[C@@H]1CN([C@@H](C)CO)C(=O)Cc2cc(NC(=O)CCCCCC(=O)Nc3ccccc3N)ccc2O[C@@H]1CN(C)Cc1ccc(Oc2ccccc2)cc1,i,-7,-7,0.8,4.1
CN1C(=O)c2cc(NC(=O)c3ccc(F)cc3)ccc2OC[C@H]2O[C@H](CC(=O)O)CC[C@@H]21,i,3,9,-0.3,-1.0
C[C@H]1CN([C@@H](C)CO)C(=O)Cc2cc(NS(=O)(=O)c3cn(C)cn3)ccc2O[C@@H]1CN(C)S(=O)(=O)c1cn(C)cn1,i,-1,1,-2.0,-4.4
Cc1ccccc1-c1cc2nc(NCCCN(C)C)n(C)c(=O)c2s1,i,0,-3,9.4,?
C[C@H](c1ccccc1)N1C[C@@H](COCc2ccccc2)Oc2cccc(N3CCCCC3)c2S1(=O)=O,i,24,14,10,-0.6
CO[C@@H](CN(C)S(=O)(=O)c1ccccc1)[C@H](C)CN(Cc1ccccc1Cl)[C@@H](C)CO,i,-1,-6,-1.7,0.7

# Complete entries, quoted from the list:
# `O=C(CCn1c(=S)[nH]c2cc3c(cc2c1=O)OCO3)NCCc1ccccc1Cl` across the screens: FGF22 binding: i; rRNA inh HTS: -2; rRNA inh HTS OD600: 4; rRNA inh HTS RFP: -0.9; AF4-AF9 inh: -11
# `CCCCN1CC(N2CCCCC2)CS1(=O)=O` (stereo not given) across the screens: FGF22 binding: i; rRNA inh HTS: 20; rRNA inh HTS OD600: 13; rRNA inh HTS RFP: 4.9; AF4-AF9 inh: -0.2
# `C[C@H]1CN([C@@H](C)CO)C(=O)Cc2cc(NS(=O)(=O)c3cn(C)cn3)ccc2O[C@@H]1CN(C)S(=O)(=O)c1cn(C)cn1` across the screens: FGF22 binding: i; rRNA inh HTS: -1; rRNA inh HTS OD600: 1; rRNA inh HTS RFP: -2.0; AF4-AF9 inh: -4.4

# The listing continues:
SMILES,FGF22 binding,rRNA inh HTS,rRNA inh HTS OD600,rRNA inh HTS RFP,AF4-AF9 inh
O=C1NC[C@@H](CCCCN2C[C@H](Cc3ccc(O)cc3)N(CCc3ccccc3)C(=O)C2=O)N(CCC2CCCCC2)C1=O,i,-50,-75,-14,3.0
CC=Cc1ccc2n(c1=O)C[C@H]1[C@H](CO)[C@@H](C(=O)NCc3ccncc3)N(C(=O)NC3CCCC3)[C@@H]21 (mixture of isomers),i,1,1,-2.7,-2.2
NC(=O)c1ccc(NS(=O)(=O)c2ccc(S(=O)(=O)N3CCCC3)cc2)cc1,i,15,25,2.1,0.2
COc1ccc(-c2ccc([C@H]3[C@H]4CN(C(=O)c5ccc6c(c5)OCO6)CCCCN4[C@H]3CO)cc2)cc1,+,1,-22,5.9,-8.5
C[C@@H]1CN([C@@H](C)CO)C(=O)Cc2cc(NS(=O)(=O)c3ccc(Cl)cc3)ccc2O[C@H]1CN(C)Cc1ccc2c(c1)OCO2,i,-42,-56,-3.1,2.3
CC(C)OC(=O)N(C)C[C@H]1OCc2cn(nn2)CCCC(=O)N([C@@H](C)CO)C[C@H]1C,i,-2,-4,-1.2,0.8
CCc1nc2ccc(C(=O)Nc3cccc(NS(C)(=O)=O)c3)cn2c1N(C)CCCc1ccccc1,i,-7,-18,0.6,-2.3
C[C@H](CO)N1C[C@H](C)[C@H](CN(C)S(=O)(=O)c2cccs2)OCc2ccccc2-c2c(n(C)c3ccccc23)C1=O,i,-3,3,-1.5,-0.3
C[C@H](CO)N1C[C@H](C)[C@H](CN(C)C(=O)Nc2ccccc2F)Oc2cc(-c3cccc(C#N)c3)ccc2S1(=O)=O,i,-18,-19,-1.5,-0.1
O=C(Cc1ccccc1)N1CC[C@H]2[C@H](CO)Nc3ccc(Br)cc3[C@H]21,i,-2,-11,-0.7,0.8
CC(C)NC(=O)N[C@H]1CC[C@H](CC(=O)NCc2ccc(Oc3ccccc3)cc2)O[C@H]1CO,i,-3,-9,-1.6,-1.6
CO[C@H]1CN(C)C(=O)c2cc(NC(=O)Nc3ccccc3)ccc2OC[C@@H](C)N(C(C)=O)C[C@@H]1C,i,0,2,3.2,1.7
Cc1ccc(S(=O)(=O)Nc2ccc3c(c2)C(=O)N([C@H](C)CO)C[C@@H](C)[C@@H](CN(C)C(=O)Nc2ccccc2)OCCCC[C@H](C)O3)cc1,i,-3,-7,0.7,-0.4
O=C1NC[C@@H](CCCCN2C[C@H](Cc3ccccc3)N(CCc3ccc(O)cc3)C(=O)C2=O)N(Cc2ccccc2)C1=O,i,-3,1,-0.4,-2.3
CCCCN(CCCNC(=S)NCCCc1cnc[nH]1)c1ccc(Br)cn1,i,-64,-81,-18,23
O=C(CCN1CCCCC1)N[C@H]1CC[C@@H](CC(=O)N2CCC(Cc3ccccc3)CC2)O[C@@H]1CO,i,-1,-7,0.3,3.3
COc1ccc(CN(C)C[C@H]2OCc3cnnn3CCCC(=O)N([C@H](C)CO)C[C@H]2C)cc1,i,-2,6,-0.4,1.1
CN1C(=O)c2cc(NC(=O)Nc3cccc(Cl)c3)ccc2OC[C@H]2O[C@@H](CC(=O)NCCc3ccncc3)CC[C@@H]21,i,-1,0,0.3,-0.7
Cc1c(C(=O)N2CCC2(C)C(=O)O)oc2ccccc12 (stereo not given),i,8,9,-0.1,-0.5
CCC(=O)Nc1ccc2c(c1)C(=O)N(C)C[C@H](OC)[C@H](C)CN(C(=O)c1ccncc1)[C@@H](C)CO2,i,4,3,-0.2,2.1

# With a hit mark in FGF22 binding, of those listed so far:
SMILES,FGF22 binding,rRNA inh HTS,rRNA inh HTS OD600,rRNA inh HTS RFP,AF4-AF9 inh
COc1ccc(-c2ccc([C@H]3[C@H]4CN(C(=O)c5ccc6c(c5)OCO6)CCCCN4[C@H]3CO)cc2)cc1,+,1,-22,5.9,-8.5

# (continued)
SMILES,FGF22 binding,rRNA inh HTS,rRNA inh HTS OD600,rRNA inh HTS RFP,AF4-AF9 inh
O=C(Nc1ccccc1)N[C@H]1CC[C@H](CCn2cc(C3(O)CCCC3)nn2)O[C@H]1CO,i,-5,-8,-0.2,-1.4
Cc1noc(C)c1NC(=O)N(C)C[C@@H]1Oc2c(NS(=O)(=O)c3c(C)noc3C)cccc2C(=O)N([C@H](C)CO)C[C@@H]1C,i,4,6,-0.6,-1.8
C[C@H](CO)N1C[C@H](C)[C@@H](CN(C)S(C)(=O)=O)OCCCC[C@H](C)Oc2ccc(NC(=O)c3ccncc3)cc2C1=O,i,1,-2,-0.2,-30
C[C@H]1CN([C@@H](C)CO)C(=O)c2cc(C3=CCCC3)cnc2O[C@@H]1CN(C)S(=O)(=O)c1cn(C)cn1,i,5,25,0.7,-3.9
C[C@@H]1CN([C@H](C)CO)C(=O)Cc2cc(NC(=O)c3ccncc3)ccc2O[C@@H]1CN(C)C(=O)Nc1ccc2c(c1)OCO2,i,2,9,-1.3,-1.1
N#Cc1cccc(-c2ccc([C@H]3[C@H](CO)N4CCCCN(C(=O)Nc5cccc(F)c5)C[C@@H]34)cc2)c1,i,-60,-66,-13,5.2
COc1ccc(CN(C)C[C@H]2Oc3c(NS(=O)(=O)c4cn(C)cn4)cccc3C(=O)N([C@H](C)CO)C[C@H]2C)cc1,i,4,7,-2.6,-1.3
CC(=O)CC1c2cc(F)ccc2C=C(c2ccsc2)N1c1ccc(-c2cccnc2)cc1 (stereo not given),i,-12,-15,2.7,3.4
C[C@@H]1CN([C@H](C)CO)C(=O)c2cc(NC(=O)Nc3ccccc3)ccc2O[C@H]1CN(C)Cc1ccncc1,i,-2,-4,-1.6,-1.9
OC(c1cccc(Cl)c1)c1nc(-c2cccc3cccnc23)cs1 (stereo not given),i,-38,-62,12,-1.2
